Screens from PubChem BioAssay.
VCAM-1 down imaging: inhibitors of TNFa-induced VCAM-1 surface display, imaging, high-content imaging, pooled HUVEC, TNFa stimulus (AID 456); HUVEC TNFa-induced VCAM-1 surface expression, immunofluorescence imaging; numbers were filed only for top-ranked candidate wells; inhibition, % at 5 µM, or IC50 in µM where a hit was titrated; actives 0.2% (n = 10,000);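 active = top tenth filtered wells with inhibition above zero that passed visual or statistical confirmation; inactive = the rest, including hits rejected on review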;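 also: 0% = stimulated vehicle wells and 100% = unstimulated cells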
FPRL1 ligand: binds the human formylpeptide receptor-like-1 FPRL1; P25090; FPRL1-expressing cells, fluorescent ligand binding inhibition, flow cytometry; inhibition, %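 (tested at 6.7 µM)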; actives 0.3% (n = 24,000); AID 441;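 also: 0% = buffer alone and 100% = receptor blocker peptide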
Target sequence (P25090 whole entry, looked up): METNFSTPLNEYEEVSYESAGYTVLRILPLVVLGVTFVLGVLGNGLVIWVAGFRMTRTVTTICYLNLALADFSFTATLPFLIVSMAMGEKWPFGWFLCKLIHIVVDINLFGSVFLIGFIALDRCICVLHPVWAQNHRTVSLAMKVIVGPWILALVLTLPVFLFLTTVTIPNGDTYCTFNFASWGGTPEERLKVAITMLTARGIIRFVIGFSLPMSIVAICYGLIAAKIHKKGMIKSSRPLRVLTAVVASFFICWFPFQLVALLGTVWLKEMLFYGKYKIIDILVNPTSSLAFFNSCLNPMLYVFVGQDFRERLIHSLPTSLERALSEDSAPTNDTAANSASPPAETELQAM
VCAM-1 down: suppression of endothelial VCAM-1 upregulation – cell-based, plate reader, pooled HUVEC, TNFa stimulus (AID 454); inhibition, % at 5 µM; actives 0.2% (n = 10,000); HUVEC TNFa-induced VCAM-1 surface immunofluorescence, plate reader; numbers were filed only for top-ranked candidate wells;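 active = compound among top-ranked inhibitors of TNF-induced VCAM-1 adhesion protein staining, with the hit upheld by image or statistical review; inactive = the rest, including hits rejected on review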;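 also: 0% = TNFa with vehicle and 100% = cells without TNFa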
VCAM-1 augmentation: boosters of cytokine-driven VCAM-1 levels – imaging, high-content imaging, pooled HUVEC, TNFa stimulus (AID 457) | Pooled HUVEC, TNFa-induced VCAM-1 immunofluorescence imaging; hits of this screen are not shown here | calls only | actives 0.2% (n = 10,000);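 active = a top-ranked rise in VCAM-1 staining upheld on image or statistical review; inactive = the rest, including candidates rejected on review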;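 also: compounds tested at 5 µM in the well; cells exposed to compound for 24 hours before fixing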
FPR ligand: ligands of human FPR, also counter-screen for FPRL1 ligands; AID 440; actives 0.74% (n = 24,000); inhibition, %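 (tested at 6.7 µM)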; FPR-expressing cells, fluorescent ligand binding, flow cytometry; P21462;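 also: 0% = buffer wells and 100% = receptor blocker peptide wells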
Target sequence (P21462 whole entry, looked up): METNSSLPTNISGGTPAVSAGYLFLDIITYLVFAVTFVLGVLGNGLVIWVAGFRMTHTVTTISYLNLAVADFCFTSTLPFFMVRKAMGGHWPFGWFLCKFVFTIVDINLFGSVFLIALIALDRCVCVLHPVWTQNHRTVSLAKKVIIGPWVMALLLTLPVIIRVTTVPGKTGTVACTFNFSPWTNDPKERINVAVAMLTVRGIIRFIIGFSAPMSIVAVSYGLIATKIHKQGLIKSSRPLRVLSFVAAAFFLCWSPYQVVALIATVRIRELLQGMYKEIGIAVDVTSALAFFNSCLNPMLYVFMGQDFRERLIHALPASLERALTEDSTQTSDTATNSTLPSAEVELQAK
* marks the source's active call; other numbers are inactive results; i = inactive; nt = not tested or not shown.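 The calls were made as follows, unless noted: active = mean above 30%; inconclusive = self-fluorescent; inactive = the rest.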

No.	Structure	VCAM-1 down imaging	FPRL1 ligand	VCAM-1 down	VCAM-1 augmentation	FPR ligand
1	O=C1C(=O)N(CCN2CCOCC2)C(c2ccccn2)/C1=C(/O)c1ccc(F)cc1 (centres undefined)	nt	10	nt	nt	14
2	Cc1noc(C)c1S(=O)(=O)N1CCCC(C(=O)N2CCC(C)CC2)C1 (centres undefined)	nt	-4	nt	nt	-1
3	O=C(Nc1ccccc1C(=O)NCCCn1ccnc1)c1ccccc1	i	-1	i	i	-5
4	O=C1c2ccccc2C(Nc2ccc3c(c2)OCCO3)N1Cc1ccc2c(c1)OCO2 (centres undefined)	i	-10	i	i	2
5	Cc1nc2nc(SCC(=O)N3CCOCC3)nn2c(C)c1Cc1c(F)cccc1Cl	nt	-13	nt	nt	-4
6	O=C(CCCN1CCC(O)(c2ccc(Cl)cc2)CC1)c1ccc(F)cc1	94%	4	87	i	6
7	COC(=O)C(NC(=O)c1ccco1)(Nc1nc(C2CC2)cs1)C(F)(F)F (centres undefined)	nt	-5	nt	nt	14
8	CN1CC2(C(=O)c3ccccc3)CN(C)CC(C(=O)c3ccccc3)(C1)C2	nt	10	nt	nt	-6
9	O=C(c1ccco1)N1CCN(C(=O)c2cccc3c2C(=O)N(Cc2cccnc2)C3)CC1	nt	2	nt	nt	-3
10	O=C(CNS(=O)(=O)c1cccc2nsnc12)NC1CCCCC1	nt	10	nt	nt	-4
11	Cc1cccc(-n2nnc(C(=O)NCc3ccccc3)c2N)c1	i	-2	i	i	-3
12	COc1ccc(OC)c(-n2cnc3cc(C(=O)NCCCN4CCOCC4)ccc32)c1	nt	0	nt	nt	1
13	COC(=O)c1cc(Nc2cc(C)nc3ncnn23)cc(C(=O)OC)c1	nt	2	nt	nt	6
14	Cc1cc(C)c(NC(=O)C2CSCCS2)c(C)c1 (centres undefined)	i	0	i	i	-1
15	CCOc1ccccc1NC(=O)C1=C(C)NC(=O)NC1c1cccc(OC)c1OC (centres undefined)	nt	10	nt	nt	-5
16	CCOc1cc2[nH]c(=O)n(CCCCC(=O)NC3CCCCC3)c(=O)c2cc1OCC	nt	9	nt	nt	2
17	COc1ccc(N(C(=O)COc2ccccc2)C2C=CS(=O)(=O)C2)cc1 (centres undefined)	nt	-1	nt	nt	0
18	CC1CCCCN1CCn1c(=S)[nH]c2ncccc2c1=O (centres undefined)	nt	16	nt	nt	17
19	CCN(CCNC(=O)C1CCN(S(=O)(=O)c2cccc3cccnc23)CC1)c1ccccc1	i	7	i	i	12
20	O=C(NCc1cccs1)C1CCC(CNS(=O)(=O)c2ccc(Br)s2)CC1 (centres undefined)	nt	-1	nt	nt	-2
21	CCCCn1c(=O)[nH]c(=O)c2c1nc(COc1ccc(C#N)cc1)n2CCC	i	1	i	i	14
22	Cc1ocnc1C(=O)Nc1ccc(Cl)cc1	nt	-1	nt	nt	8
23	CC12C(=O)N(CCC(=O)O)C(=O)C1C1C=CC2C1 (centres undefined)	i	7	i	i	4
24	CC(C)c1ccc(C(=O)CSc2ncn[nH]2)cc1	nt	-2	nt	nt	-2
25	CCC(Sc1nc2cc(OC)c(OC)cc2c2nc(C)nn12)C(=O)NCc1ccco1 (centres undefined)	nt	1	nt	nt	2
26	COc1cccc(C2=NOC(C(=O)Nc3cc(C)nn3-c3ccccc3)C2)c1OC (centres undefined)	i	0	i	i	-3
27	Cc1ccc(CS(=O)(=O)CCC(=O)NCCCN2CCCC2)cc1	nt	5	nt	nt	-3
28	CN(C)CCCN1C(=O)C(=O)/C(=C(/O)c2ccncc2)C1c1cccc(Br)c1 (centres undefined)	i	1	i	i	-6
29	O=C(Cn1cccc1C(=O)c1ccccc1)NCc1cccs1	nt	2	nt	nt	4
30	CCOc1ccccc1NC(=O)CSc1nnc(Cc2cccn2C)n1-c1ccc(F)cc1	i	-4	i	i	4
31	COC(=O)C(C)Sc1ncnc2c1nnn2-c1ccc(F)cc1 (centres undefined)	nt	2	nt	nt	-2
32	O=C(NC1CCCC1)c1ccc(CS(=O)(=O)c2cccc(C(F)(F)F)c2)o1	nt	4	nt	nt	0
33	CC1Cc2nc(SCC(=O)NC3CCCCC3)n(C)c(=O)c2S1 (centres undefined)	nt	5	nt	nt	-7
34	CN1C(=O)OC(C)(CCc2ccccc2)C1(C)O (centres undefined)	nt	0	nt	nt	-2
35	COc1ccc(NC(=O)c2cc(C)on2)cc1OC	i	3	i	i	-5
36	CCOC(=O)N1CCN(C(=O)CSc2nc3c(c(=O)n2-c2ccccc2OC)SCC3)CC1	nt	-6	nt	nt	2
37	CCOC(=O)c1cccc(NC(=O)CCS(=O)(=O)c2cccc3nsnc23)c1	nt	-2	nt	nt	2
38	O=S(CC(O)COCc1ccc(Cl)cc1)c1ccccn1 (centres undefined)	i	3	i	i	-1
39	CCOc1ccccc1N1CCN(S(=O)(=O)c2cccc3nsnc23)CC1	i	-12	i	i	9
40	CS(=O)(=O)N(Cc1ccco1)CC(O)Cn1c2ccccc2c2ccccc21 (centres undefined)	i	-2	i	i	6
41	CCCCn1c(=O)[nH]c(=O)c2c1nc(-c1ccncc1)n2CCOC	i	10	i	i	-2
42	O=C1C(Cl)=C(N2CCOCC2)C(=O)N1CCc1ccccc1	i	-2	i	i	-3
43	COc1ccc(S(=O)(=O)CCC(=O)O)cc1	i	1	i	i	5
44	NS(=O)(=O)c1ccc(CNC(=O)NC2(c3ccccc3)CC2)cc1	nt	0	nt	nt	-4
45	O=C(NCc1ccco1)c1cccc(-c2nnc(-c3ccccc3)o2)c1	i	-2	i	i	-4
46	CC(C)COC(=O)C1C2C=CC3(CN(C(C)c4ccc(Br)cc4)C(=O)C13)O2 (centres undefined)	i	17	i	i	-7
47	O=C(NCCN1CCN(c2ccccc2)CC1)c1cccn2c(=O)c3cc(Cl)ccc3nc12	nt	6	nt	nt	-1
48	O=C(Nc1ccc(F)c(F)c1)c1ccc(F)c(S(=O)(=O)N2CCOCC2)c1	nt	7	nt	nt	16
49	N#CC(C(=O)Nc1ccccc1)=C1CCCCC1	i	-12	i	i	-14
50	CCOC(=O)c1cccc(NC(=O)CSc2nc3ccccc3c(=O)n2CC)c1	i	-4	i	i	-11
51	O=C(NC1CCCCCC1)C1c2ccccc2C(=O)N1CCCN1CCOCC1 (centres undefined)	nt	0	nt	nt	1
52	O=C(NCc1ccc2c(c1)OCO2)C1CCCN(S(=O)(=O)c2cccs2)C1 (centres undefined)	nt	6	nt	nt	5
53	COc1ccc(-n2nc(C(=O)O)c3ccccc3c2=O)c(OC)c1	nt	2	nt	nt	1
54	O=C(Nc1ccccc1)N1CCCC2CCCCC21 (centres undefined)	nt	6	nt	nt	-5
55	Cn1c(CCCNC(=O)c2ccccc2)nc2ccccc21	i	0	i	i	4
56	Cc1cccn2c(=O)c3cc(C(=O)NCc4ccccn4)n(C)c3nc12	nt	4	nt	nt	-5
57	COCc1cc(C)nc2sc(C(=O)N3CCN(c4ccccc4)CC3)c(N)c12	nt	2	nt	nt	-2
58	CCOC(=O)CN1C(=O)COc2ccc(Cl)cc21	nt	-2	nt	nt	-12
59	O=C(Nc1c(-c2ccccc2)nc2ccccn12)c1ccco1	i	12	i	i	7
60	O=C(NCCOC(=O)C1COc2ccccc2O1)c1cccnc1 (centres undefined)	nt	3	nt	nt	-1

Compounds 31 through 35, quoted:
No.	Structure	VCAM-1 down imaging	FPRL1 ligand	VCAM-1 down	VCAM-1 augmentation	FPR ligand
31	COC(=O)C(C)Sc1ncnc2c1nnn2-c1ccc(F)cc1 (centres undefined)	nt	2	nt	nt	-2
32	O=C(NC1CCCC1)c1ccc(CS(=O)(=O)c2cccc(C(F)(F)F)c2)o1	nt	4	nt	nt	0
33	CC1Cc2nc(SCC(=O)NC3CCCCC3)n(C)c(=O)c2S1 (centres undefined)	nt	5	nt	nt	-7
34	CN1C(=O)OC(C)(CCc2ccccc2)C1(C)O (centres undefined)	nt	0	nt	nt	-2
35	COc1ccc(NC(=O)c2cc(C)on2)cc1OC	i	3	i	i	-5

The results go on.
No.	Structure	VCAM-1 down imaging	FPRL1 ligand	VCAM-1 down	VCAM-1 augmentation	FPR ligand
61	CCOC(=O)COc1cc(=O)n(CC)c2ccccc12	nt	-10	nt	nt	9
62	FC(F)(F)c1cccc(N2CCN(c3nnnn3-c3ccccc3)CC2)c1	i	-6	i	i	0
63	CCCC(=O)Nc1sc(C(=O)OC)c(C)c1C(N)=O	nt	-5	nt	nt	-3
64	Fc1cccc(Cl)c1Cn1nnc2c(NCc3ccccn3)ncnc21	i	1	i	i	0
65	CCOC(=O)C1C(=O)C=C(N2CCOCC2)CC1c1cccc(OC)c1 (centres undefined)	nt	2	nt	nt	0
66	COc1ccccc1N1CCN(C(=O)C2CCC(Cn3c(=S)[nH]c4ccccc4c3=O)CC2)CC1 (centres undefined)	nt	-4	nt	nt	5
67	CCCN(CCC)C(=O)CC(c1ccc(F)cc1)c1ccco1 (centres undefined)	i	-1	i	i	4
68	CCCC(=O)Nc1ccccc1NC(=O)CN(C)S(=O)(=O)c1ccc(C)cc1	i	-2	i	i	-3
69	CCOC(=O)c1cc2c(=O)n3ccccc3nc2n(CC2CCCO2)c1=NC(C)=O (centres undefined)	i	-4	i	i	4
70	O=C(c1cc(-c2ccc(Cl)cc2)on1)N1CCOCC1	nt	-3	nt	nt	-4
71	O=C(NC1CCCCCCC1)c1ccc(CNc2c(N3CCOCC3)c(=O)c2=O)cc1	nt	7	nt	nt	8
72	Cc1ccsc1-c1nc(CSCC(=O)N2CCN(c3ccccc3)CC2)c(C)o1	nt	-2	nt	nt	-4
73	COc1cccc(-c2nc(CSCC(=O)NCC3CCCO3)c(C)o2)c1 (centres undefined)	nt	6	nt	nt	2
74	COc1ccc(-c2nc(CS(=O)CC(=O)NCCCN3CC(C)CC(C)C3)c(C)o2)cc1OC (centres undefined)	nt	-1	nt	nt	1
75	Cc1cc(C)n(C(C)n2nc(C)cc2C)n1	i	0	i	i	3
76	CCN=C1SC(CC(=O)Nc2ccccc2OCC)C(=O)N1CC (centres undefined)	i	2	i	i	-2
77	O=C(C1CCC(CNc2c(N3CCCCC3)c(=O)c2=O)CC1)N1CCCCC1 (centres undefined)	nt	5	nt	nt	-1
78	CC1(C)Cc2noc(N)c2C(C)(C)N1OC(=O)c1cccs1	i	1	i	i	-5
79	Cc1ccc(C(=O)C2=C(O)C(=O)N(c3ncccn3)C2c2cccc(Cl)c2)o1 (centres undefined)	nt	7	nt	nt	5
80	CCOC(=O)C1CCN(C(=O)c2cn(CCOC)c(=O)c3c2c2ccccc2n3C)CC1	nt	-2	nt	nt	1
81	CCC(=O)N1CCc2cc(OC)c(OC)cc2C1COc1ccc(C(=O)OC)cc1 (centres undefined)	i	-1	i	i	4
82	CC1CCCC(NC(=O)CC2Nc3ccccc3NC2=O)C1C (centres undefined)	nt	-4	nt	nt	2
83	CCOC(=O)C1CCCN(C(=O)Cn2nc(Cc3cccnc3)c3ccccc3c2=O)C1 (centres undefined)	nt	-2	nt	nt	7
84	Cc1cccc(N2CCN(C(=O)COc3cc(=O)n(C)c4ccccc34)CC2C)c1 (centres undefined)	nt	-1	nt	nt	-5
85	C=C(c1cccc2ccccc12)P(=O)(O)O	i	3	i	i	9
86	COc1cccc(-c2nc(-c3ccc(NC(=O)Cc4ccccc4OC)cc3)no2)c1	i	-6	i	i	3
87	CCN1CCc2c(sc(NC(=O)c3ccc(S(=O)(=O)N4CCOCC4)cc3)c2C(=O)OC)C1	nt	4	nt	nt	2
88	COc1ccc(S(=O)(=O)NC(CC(=O)NCc2ccc3c(c2)OCO3)c2ccco2)cc1 (centres undefined)	nt	3	nt	nt	4
89	CCC(=O)N1CCc2cc(S(=O)(=O)CCC(=O)N3CCc4ccccc4C3)ccc21	nt	-3	nt	nt	-4
90	O=C(Nc1c(F)cc(F)cc1Br)c1cc(-c2ccc(O)cc2)on1	nt	-19	nt	nt	-4
91	Cc1c(C(C)O)nnn1-c1nonc1N (centres undefined)	nt	-3	nt	nt	2
92	Cc1ccc2oc(=O)c3cnn(CC(=O)N4CCc5ccccc5C4)c3c2c1	nt	3	nt	nt	3
93	N#CC(C(=O)NCCc1ccccc1)c1nc2ccccc2nc1N1CCOCC1 (centres undefined)	i	-2	i	i	-1
94	COc1ccc(C2C(C(=O)Nc3cc(C)on3)c3ccccc3C(=O)N2C)cc1OC (centres undefined)	nt	-2	nt	nt	2
95	Cc1cc(C)n(-c2nnc(C)n2/N=C/c2ccco2)n1	i	8	i	i	4
96	COc1ccccc1OCc1ccc(C(=O)N2CCN(C(=O)c3ccco3)CC2)cc1	i	6	i	i	-4

A portion of the library; rates above refer to the full screens.
